# INS promoter inh: TRM-6 insulin promoter activity inhibition; TRM-6 cells (human fetal islet line), insulin promoter-eGFP reporter, imaging; reporter expression induced with tamoxifen; AID 1273; 0.9% of 130,000 active; inhibition, % at 2 µM;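 active = inhibition above the mean plus 3 SD, with well images judged a real hit on visual review, cut at about 60% in these data, passing the limit was not always enough; inconclusive = inhibition over the cutoff but images rejected on review; inactive = inhibition not above the cutoff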
# GALR2 agonist: activates the human galanin receptor 2. AID 803. 0.48% of 140,000 active. activation, %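 (tested at 5 µM)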. GALR2-expressing cells, agonist activation read-out. O43603;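 active = above mean plus 3 SD of all compounds, about 5% in these data, not always enough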;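 also: 0% = vehicle buffer wells and 100% = reference agonist at full effect; tested in CHO reporter cells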
# HSV replic up: increases HSV replication in cells. 0.005% of 220,000 active. HSV replication augmentation in cells, fold increase. maximum fold increase. AID 1956;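 active = peak rise of 1.5-fold or more in the series; inconclusive = self-fluorescent or not available for retest; tested in PC3 cells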;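 also: first round at 10 µM; read as green reporter fluorescence; hits show the peak of a series up to 25 µM; 1 = signal of infected wells without compound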
# PKD1 inh: inhibitors of human PKD1 kinase. Q15139. PKD1 kinase fluorescence polarization assay. inhibition, %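 (about 10 µM by stock and volumes)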. 0.056% of 200,000 active. AID 797;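 active = inhibition of 50% or more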;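 also: controls were vehicle for no effect and a reference inhibitor for full effect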
# Target sequence (Q15139 whole entry, looked up): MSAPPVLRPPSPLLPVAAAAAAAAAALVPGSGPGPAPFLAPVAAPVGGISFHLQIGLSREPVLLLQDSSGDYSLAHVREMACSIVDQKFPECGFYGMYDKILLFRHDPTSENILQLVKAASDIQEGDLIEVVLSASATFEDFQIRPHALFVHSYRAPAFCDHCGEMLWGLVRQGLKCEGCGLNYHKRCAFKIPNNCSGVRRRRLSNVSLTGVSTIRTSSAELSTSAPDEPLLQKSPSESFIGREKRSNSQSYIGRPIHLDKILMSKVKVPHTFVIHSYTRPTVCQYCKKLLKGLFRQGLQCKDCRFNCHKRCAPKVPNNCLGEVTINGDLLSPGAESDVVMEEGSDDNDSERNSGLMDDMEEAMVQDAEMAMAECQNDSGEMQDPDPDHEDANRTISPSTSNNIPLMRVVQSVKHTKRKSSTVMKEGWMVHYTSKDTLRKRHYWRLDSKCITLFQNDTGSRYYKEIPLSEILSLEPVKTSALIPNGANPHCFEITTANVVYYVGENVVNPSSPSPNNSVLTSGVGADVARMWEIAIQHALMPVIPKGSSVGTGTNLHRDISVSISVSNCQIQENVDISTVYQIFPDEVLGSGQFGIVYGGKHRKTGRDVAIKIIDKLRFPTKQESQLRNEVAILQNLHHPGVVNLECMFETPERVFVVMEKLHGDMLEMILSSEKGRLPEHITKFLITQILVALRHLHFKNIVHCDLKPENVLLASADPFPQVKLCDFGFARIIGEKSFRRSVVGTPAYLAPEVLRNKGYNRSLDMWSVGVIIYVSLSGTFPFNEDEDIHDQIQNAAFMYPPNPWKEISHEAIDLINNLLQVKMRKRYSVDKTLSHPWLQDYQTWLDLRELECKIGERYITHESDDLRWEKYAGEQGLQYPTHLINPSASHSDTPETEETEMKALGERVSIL
# RGS16-Gao HTS: regulators of human RGS16-Galphao interaction | O15492+P09471 | bead-based flow cytometry RGS16-Galphao binding, fluorescence; actives lie on both sides | binding response (% of control), % at 10 µM | 0.38% of 220,000 active | AID 1441;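 active = below 25% or above 175%, edge rows of some plates excepted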;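 also: Galphao activated by GDP with aluminum fluoride before binding; 100% = wells without compound and 0% = beads without RGS; some results beyond the cut were filed as inactive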
# INS promoter inh cell count: further read-out of INS promoter inh, marked with its call; normalized cell count, %; measured here: cell count, toxicity; reference of the scale not given here;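 cells exposed to compound for 48 h; stained nuclei by imaging scaled within each plate; lower means fewer cells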
# HSV replic up primary fold: second read-out of HSV replic up, no call of its own (marks repeat the call); fold increase; compound at 10 µM; measured here: primary screen fold increase 10 uM; tested in PC3 cells;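 GFP signal in the first replicate; 1 = infected wells without compound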
# An asterisk follows results filed as active; i = inactive; ? = inconclusive; . = no result given. Rows are unselected; overall some 1.2% were active at least once.
Compound	INS promoter inh	INS promoter inh cell count	GALR2 agonist	HSV replic up	HSV replic up primary fold	PKD1 inh	RGS16-Gao HTS
CCCCOc1ccccc1NC(=O)C=C(C)C	-34	57	-2.2	i	0.75	-6	75
COc1cccc(N(CC(=O)Nc2cccc(C(C)=O)c2)S(C)(=O)=O)c1	-38	120	0.0	i	1	-16	99
CNC(=O)c1c(N)sc2c1CCCCC2	.	.	-2.5	i	0.91	-13	78
CN1CCc2nc(SCC(=O)Nc3ccc(OC(F)(F)F)cc3)c(C#N)c(-c3cccs3)c2C1	-27	124	0.6	i	0.9	5	106
Cc1no[n+]([O-])c1COc1ccccc1/C=N/n1nnnc1N	-44	127	-0.9	i	0.9	-1	111
Cc1ccccc1OCC(O)Cn1c(NCc2ccccc2)nc2c1c(=O)[nH]c(=O)n2C (stereo unspecified)	-18	152	-0.2	i	0.86	-9	97
COc1cc(NC(=S)NCCSc2ccc(C)cc2)cc(OC)c1	3	116	-1.5	i	0.81	-13	70
O=C(CCC(=O)c1ccc[nH]1)c1ccc(Cl)cc1	-3	68	2.8	i	0.96	2	90
Cc1ccc(Nc2nc(N)[nH]c(=O)c2N=O)cc1	.	.	.	i	1	.	103
CC(=O)OCCCCCCCCCCC[N+]1(C)CCCCC1	.	.	.	i	1.1	-8	111
O=C(Nc1ccc(SC(F)F)cc1)c1ccc2nccnc2c1	29	101	-1.3	i	0.95	1	93
CCn1cc(CNC(=O)c2cc([N+](=O)[O-])c(C)c([N+](=O)[O-])c2)cn1	-17	110	-0.1	.	.	-3	106
C=CCNC(=O)CN1CCC(n2nnc3cc(C(F)(F)F)ccc32)CC1	36	82	.	i	0.93	4	106
O=C(CCc1nc2ccccc2[nH]1)Nc1ccc2c(c1)OCCO2	-15	52	-0.7	.	.	-10	72
O=C(Nc1cc(S(=O)(=O)N2CCOCC2)ccc1O)c1ccc2c(c1)S(=O)(=O)c1ccccc1C2=O	.	.	.	i	0.87	-3	97
NS(=O)(=O)c1cccc(NC(=S)NCc2ccccc2)c1	28	68	.	i	1.2	7	99

# Some of these compounds in order of molar mass, descending.
Compound	INS promoter inh	INS promoter inh cell count	GALR2 agonist	HSV replic up	HSV replic up primary fold	PKD1 inh	RGS16-Gao HTS
O=C(Nc1cc(S(=O)(=O)N2CCOCC2)ccc1O)c1ccc2c(c1)S(=O)(=O)c1ccccc1C2=O	.	.	.	i	0.87	-3	97
CN1CCc2nc(SCC(=O)Nc3ccc(OC(F)(F)F)cc3)c(C#N)c(-c3cccs3)c2C1	-27	124	0.6	i	0.9	5	106
Cc1ccccc1OCC(O)Cn1c(NCc2ccccc2)nc2c1c(=O)[nH]c(=O)n2C (stereo unspecified)	-18	152	-0.2	i	0.86	-9	97
COc1cccc(N(CC(=O)Nc2cccc(C(C)=O)c2)S(C)(=O)=O)c1	-38	120	0.0	i	1	-16	99
C=CCNC(=O)CN1CCC(n2nnc3cc(C(F)(F)F)ccc32)CC1	36	82	.	i	0.93	4	106
COc1cc(NC(=S)NCCSc2ccc(C)cc2)cc(OC)c1	3	116	-1.5	i	0.81	-13	70
O=C(Nc1ccc(SC(F)F)cc1)c1ccc2nccnc2c1	29	101	-1.3	i	0.95	1	93
O=C(CCc1nc2ccccc2[nH]1)Nc1ccc2c(c1)OCCO2	-15	52	-0.7	.	.	-10	72
NS(=O)(=O)c1cccc(NC(=S)NCc2ccccc2)c1	28	68	.	i	1.2	7	99
Cc1no[n+]([O-])c1COc1ccccc1/C=N/n1nnnc1N	-44	127	-0.9	i	0.9	-1	111
CC(=O)OCCCCCCCCCCC[N+]1(C)CCCCC1	.	.	.	i	1.1	-8	111
CCCCOc1ccccc1NC(=O)C=C(C)C	-34	57	-2.2	i	0.75	-6	75
Cc1ccc(Nc2nc(N)[nH]c(=O)c2N=O)cc1	.	.	.	i	1	.	103

# Going on with the list.
Compound	INS promoter inh	INS promoter inh cell count	GALR2 agonist	HSV replic up	HSV replic up primary fold	PKD1 inh	RGS16-Gao HTS
CCOc1ccc(CCNC(=O)CN(C)S(=O)(=O)c2cccc3nsnc23)cc1OCC	47	54	-1.4	i	1	-3	100
COc1cccc(NC(=O)c2ccc(NC(C)=O)cc2)c1	4	113	0.1	i	1	-6	114
CCC1CCCCN1S(=O)(=O)c1ccc2c(c1)CCN2C(=O)C1CCC1 (stereo unspecified)	6	104	-3.0	i	0.86	2	93
Cc1cccc(OCC(O)Cn2c(=N)n(Cc3ccccc3)c3ccccc32)c1 (stereo unspecified)	.	.	.	i	0.7	.	104
Cn1c(O)c(N=NC(=O)C2COc3ccccc3O2)c2ccccc21 (stereo unspecified)	.	.	.	i	0.95	.	105
CN(C)C(=O)N1CCN(C(=O)c2ccco2)CC1	.	.	-2.2	i	1.2	-3	102
N/C(=N\OC(=O)COc1ccccc1Cl)c1ccccn1	-13	85	-0.3	i	0.93	10	99
COc1cc(C(=O)OCCn2c(=O)c3c(ncn3CCN(C)C)n(C)c2=O)cc(OC)c1OC	-25	93	0.4	i	1	2	98
Cc1ccc(NC(=O)C2c3ccccc3Oc3ccccc32)c(C)c1	-47	76	-0.6	i	0.98	8	112
Cc1ccc(-n2[nH]c(C)c(C=Nc3cc(C)ccn3)c2=O)cc1	21	103	0.6	i	0.98	-4	98
COc1ccc(C2OC(=O)CC2C(=O)NCc2ccc(F)cc2)cc1OC (stereo unspecified)	40	80	.	i	0.94	1	93
Cc1noc(C)c1CSCC(=O)OCC(=O)Nc1sccc1C#N	.	.	-2.7	i	0.85	-6	135
CC1(OC(=O)C2CCCC2)C(=O)C=C2C=C(c3ccsc3)N(c3ccccc3)C=C2C1=O (stereo unspecified)	.	.	.	i	1.1	.	79
O=C(CS(=O)(=O)c1ccccc1)c1ccc2c(c1)OCCO2	0	130	-2.1	i	0.84	-3	98
COCCOC(=O)c1c(C)oc2ccc(O)c(CN3CCC(C)CC3)c12	-31	86	-1.8	i	0.91	3	101
O=c1cc(CN2CCCCC2)nc(C2CC2)[nH]1	60	101	.	i	0.96	-2	100
CCCCC1CC1C(=O)Nc1ncc2c(n1)CC(C)(C)CC2=O (stereo unspecified)	-45	123	-1.7	i	0.97	5	84
Cc1ccccc1OCC(O)Cn1c(SC(C)C)nc2c1c(=O)[nH]c(=O)n2C (stereo unspecified)	.	.	0.3	i	0.77	-2	99
CN(C)[C@@H]1CCC[C@@H]1OC(=O)C(c1ccccc1)c1ccccc1	21	144	-1.0	i	1.1	11	108
CCn1cc(C(=O)NCC(=O)OC)c2cc(OC)c(OC)cc2c1=O	45	106	0.4	i	0.94	-3	90
CCn1cc(CNCc2c(C(=O)N3CCCCC3)nc3c(C)cccn23)cn1	.	.	.	i	1	5	96
Fc1ccc(C2NCCn3cccc32)cc1 (stereo unspecified)	22	84	-0.7	i	0.79	-2	95
O=C1c2cccnc2C(=O)N1c1cccc(-c2nc3ccccc3o2)c1	23	41	-1.7	i	1	2	99
O=c1oc2c3c4c(cc2c(C(F)(F)F)c1CCN1CCOCC1)CCCN4CCC3	-26	138	-0.1	?	.	9	173
CCSc1nnc(NC(NC(=O)c2ccco2)(C(F)(F)F)C(F)(F)F)s1	.	.	-2.0	i	0.99	8	103
N#CCC(=O)N/N=C/c1cn(Cc2ccc(Cl)c(Cl)c2)c2ccccc12	.	.	.	i	0.72	.	104
Cc1cc(C)c(S(=O)(=O)NCC(=O)NCc2ccco2)c(C)c1	0	107	.	.	.	7	94
Cc1nc2ccccc2nc1OCc1ccccc1	.	.	-0.2	i	1.1	4	105
N=C(N)Sc1nc(N2CCCCC2)nc(N2CCCCC2)n1	48	142	.	i	0.95	-5	110
CC1(C)CC(=O)C/C(=N\NC(=O)C2CC2c2ccccc2)C1 (stereo unspecified)	6	130	.	i	0.93	-3	100
Cc1cccc(C)c1NC(=O)NCCSc1snnc1C	.	.	.	i	0.98	1	99
O=C1OCC2=C1C(c1ccc(Cl)cc1)CC(=O)N2c1ccc(F)cc1 (stereo unspecified)	8	102	.	i	0.94	1	104
CC(=O)NCC(=O)OC(C(=O)c1ccccc1)c1ccc(Cl)cc1 (stereo unspecified)	-71	83	-1.2	i	1.2	5	103
CC1(C)CC(=O)c2cc(C(=O)NCc3ccco3)c(=O)n(-c3ccccc3)c2C1	-20	85	-1.0	i	0.98	-1	101
COc1ccc(NC(=S)N/C(=N/CS(=O)(=O)c2ccccc2)c2ccccc2)cc1	33	131	-1.3	i	0.83	-5	97
COc1ccc(/C=C2\SC(=S)N(C(Cc3ccccc3)C(=O)O)C2=O)cc1 (stereo unspecified)	.	.	.	i	0.94	-3	102
CN1C[C@@H]2C[C@@H](C3=Cc4cc(Cl)ccc4OC3)N3CCC[C@@]23C1=O	17	121	.	i	1	-3	98
O=C(CSc1nc2cc(Cl)ccc2o1)N1CCOCC1	25	75	-0.6	i	0.88	7	104
Cc1cccc(NC(=S)N(CCCN2CCCC2)Cc2cccn2Cc2ccc(Cl)cc2)c1	.	.	.	i	0.78	7	95
CCOCCOC(=O)C1=C(C)N(C)C(=O)NC1c1cc(Cl)c(O)c(OC)c1 (stereo unspecified)	.	.	0.2	i	1	7	109
CCOC(=O)c1ccc(NC(=O)CSc2nnc(-c3cccs3)n2CC)cc1	-325	31	-0.2	i	1.1	-4	103
CC(C)C(CCN1C(=O)CCC1=O)C1CCOC(C)(C)C1 (stereo unspecified)	5	110	-1.3	i	0.77	-7	105
CCCC(=O)C1CCN(Cc2ccccc2)CC1	0	122	-0.9	i	0.94	-4	108
CCn1c(=O)n(CC)c2cc(S(=O)(=O)N3CCCCC3)c(C)cc21	14	92	-2.4	i	1	-5	101
Cc1cc(C(=O)NC2CC2)c2ccccc2n1	11	93	.	i	0.99	1	90
NC(=O)c1ccccc1NS(=O)(=O)Cc1ccc(Cl)cc1	-33	128	-1.1	i	0.87	-4	102
CCOC1CCc2c(C)nc(N)nc2S1 (stereo unspecified)	.	.	.	i	1	.	102
CCc1c(C)nc2ncnn2c1Nc1ccc(C(C)=O)cc1	-450	90	-1.7	i	1	-14	87
Cc1ccc(Nc2ncnc3c2nnn3Cc2ccccc2)cc1	.	.	.	i	1.1	.	104
O=C(CCNC(=O)c1ccccc1Cl)Nc1cc(S(=O)(=O)N2CCOCC2)ccc1N1CCOCC1	.	.	.	i	0.64	.	97
CCn1c(SCC(=O)NCc2ccco2)nc2c1c(=O)n(C)c(=O)n2C	-9	114	-2.5	i	1.1	9	81
Cc1nc2nc(-c3ccc(Cl)cc3)[nH]n2c(=O)c1Cc1ccccc1	59	111	0.5	i	0.95	-8	98
c1ccc(CNCCC(Cc2ccccc2)c2ccco2)cc1 (stereo unspecified)	.	.	.	i	0.84	.	99
O=C(CSc1ccccc1)Nc1ccccc1C(=O)N1CCCC1	.	.	.	i	0.89	-4	99
CCN(CC)S(=O)(=O)c1ccc(N2C(=O)CC2(/C=C/c2ccccc2)C(=O)NC2CCCC2)cc1 (stereo unspecified)	.	.	-1.5	i	0.99	3	122
O=C(NC1CC1)C1=C[C@@H](c2ccccc2)C[C@@H](OCc2ccc(CO)cc2)O1	.	.	.	i	0.98	.	108

# Further results:
Compound	INS promoter inh	INS promoter inh cell count	GALR2 agonist	HSV replic up	HSV replic up primary fold	PKD1 inh	RGS16-Gao HTS
Nc1nonc1OCCc1ccccc1	26	131	-1.1	i	0.91	-2	99
CCC1(C)Cc2c(sc3nc(SC)nc(NCCN(C)C)c23)CO1 (stereo unspecified)	0	84	-1.6	i	0.69	1	101
COc1ccccc1CN1CCN(S(=O)(=O)c2ccccc2)CC1	21	70	-2.0	i	0.94	-2	104
CC(C)C(=O)Nc1cc(S(=O)(=O)Nc2ccc(Cl)cc2)ccc1Cl	.	.	-0.7	i	1.1	12	106
Cn1c(=O)c(C(=O)COc2ccc(F)cc2Cl)c(N)n(Cc2ccccc2)c1=O	-45	77	.	i	0.88	-6	103
O=C(Cn1ccc2ccccc2c1=O)NCCC(=O)N1CCN(C(=O)c2ccco2)CC1	70	118	-1.6	.	.	0	.
CCOc1cc(C2C(C(=O)c3ccc(C)o3)=C(O)C(=O)N2CCc2ccccc2)ccc1O (stereo unspecified)	21	102	-2.5	i	0.93	1	111
OCC1OC(n2nc3ccccc3n2)C(O)C(O)C1O (stereo unspecified)	.	.	-1.6	i	1.1	-9	110
